# HNF4A DNA FP – change in binding of human HNF4 alpha to DNA | hit rate 0.3% among 360,000 | HNF4a-FITC DNA binding, fluorescence polarization, 1 h | AID 1224865 | activity change, % at 10 µM; in the data active = activity change above about 30%, passing the limit was not always enough;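 note: controls were the assay level and a saturating level of protein; the project sought stronger binding though the title names inhibitors; some compounds called inactive have numbers as strong as hits; positive values seem to mean higher polarization but the record does not say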
# Target sequence (P41235 whole entry, looked up): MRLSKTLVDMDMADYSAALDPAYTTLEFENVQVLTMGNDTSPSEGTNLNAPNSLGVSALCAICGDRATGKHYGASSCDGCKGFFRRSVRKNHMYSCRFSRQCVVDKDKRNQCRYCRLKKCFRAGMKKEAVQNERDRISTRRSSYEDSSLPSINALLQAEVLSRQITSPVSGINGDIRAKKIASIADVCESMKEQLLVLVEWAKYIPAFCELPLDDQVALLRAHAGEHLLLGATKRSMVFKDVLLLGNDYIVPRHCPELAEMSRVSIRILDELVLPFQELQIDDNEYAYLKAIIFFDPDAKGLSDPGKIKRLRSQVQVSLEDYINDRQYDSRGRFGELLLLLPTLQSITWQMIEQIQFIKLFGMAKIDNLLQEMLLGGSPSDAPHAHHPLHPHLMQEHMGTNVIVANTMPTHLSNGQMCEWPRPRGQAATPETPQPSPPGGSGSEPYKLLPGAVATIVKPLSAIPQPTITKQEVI
# UCH37 DUB inh – inhibitors of human deubiquitinating enzyme UCH37 | Q9Y5K5 | purified proteasome/UCH37, Ub-AMC cleavage fluorescence | inhibition, % (no concentration beside the values) | hit rate 0.33% among 330,000;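 active = mean of two replicates above 20%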;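 note: 0% = compound-free wells with enzyme and 100% = wells lacking proteasome; stock transfer was 100 nL into about 20 µL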
# Target sequence (Q9Y5K5 whole entry, looked up): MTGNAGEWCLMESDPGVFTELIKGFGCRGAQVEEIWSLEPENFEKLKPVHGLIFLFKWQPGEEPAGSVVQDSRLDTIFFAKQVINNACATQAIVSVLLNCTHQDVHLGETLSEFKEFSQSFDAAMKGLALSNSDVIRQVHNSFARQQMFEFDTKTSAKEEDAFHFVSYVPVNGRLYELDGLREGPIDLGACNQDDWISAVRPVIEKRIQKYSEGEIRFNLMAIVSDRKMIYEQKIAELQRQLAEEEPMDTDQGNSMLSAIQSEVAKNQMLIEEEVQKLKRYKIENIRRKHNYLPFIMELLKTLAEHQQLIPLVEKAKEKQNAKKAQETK
#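 Reagent: Ub-AMC substrate; assay system: Proteasome-associated human UCH37 deubiquitinase; controls: no-proteasome and no-compound wells; read-out: % inhibition of Ub-AMC cleavage fluorescence; timing: 30 min preincubation with enzyme, 25 min cleavage at room temperature; signal: AMC fluorescence from Ub-AMC cleavage, excitation 355 nm, emission 460 nm; buffer or medium: Tris-HCl pH 7.4 plus ovalbumin, ATP-MgCl2, DTT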
# Vif TR-FRET – HIV-1 Vif–A3G interaction blockers – biochemical, TR-FRET, GST-Vif 1-94, biotin-A3G peptide, dose response retest, primary screen (AID 1117319). one-dose inhibition, %; IC50 in µM for titrated hits. TR-FRET GST-Vif / biotin-A3G peptide binding; higher % means a stronger effect; test concentration not given here; strong numbers were not always called active. hit rate 0.57% among 260,000;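 active = above the screen mean plus three standard deviations and confirmed in dose response; inconclusive = results disagree or hit not tested in dose response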;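 note: Vif residues 1-94 fused to GST binding biotinylated APOBEC3G peptide 110-148; 0% = full assay without inhibitor and 100% = GST in place of GST-Vif; retest series ran down from 100 µM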
# RanGTP-Impb inh – inhibitors of RanGTP-importin-beta interaction, primary screen, biochemical, FRET, CFP-Ran, YFP-importin-beta, homogeneous | cell-free CFP-Ran/YFP-importin-beta FRET ratio | inhibition, % (test concentration not listed) | hit rate 1.1% among 300,000 | AID 2216;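 active = most replicates above 15%; inconclusive = exactly half above 15%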;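 note: 0% = DMSO wells and 100% = Ran loaded with GDP instead of GTP; wells of about 40 µL received 100 nL stock; the first replicate is given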
# E coli growth – inhibitors of Escherichia coli growth; OD600, 23 h; stronger effect = lower value; OD600 absorbance (test concentration not listed); hit rate 0.21% among 330,000;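 active = OD600 absorbance below the run mean of sample wells minus 3.6 SD, in any replicate, cut at about 0.56 in these data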;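 note: stock transfer was 300 nL into about 60 µL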
# MLL AF4-AF9 inh – blocks AF4 peptide binding to human AF9 | P42568 | AlphaScreen, biotin-AF4 peptide binding to FLAG-AF9 | inhibition, % at 10 µM | hit rate 0.47% among 350,000 | AID 651704;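 active = every replicate reaching a set inhibition limit, whatever the replicate mean, cut at about 25% in these data; inconclusive = mean inhibition reaches that limit but some replicates miss it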;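 note: 0% = plate neutral control median and 100% = total signal loss; the record names both 10 and 1 µM as test concentration; the first replicate is given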
# FGF22 binding – binders of recombinant human FGF22 by thermal shift; Q9HCT0; SYPRO orange fluorescence; percent of sucrose octasulfate shift, DMSO zero; calls only at 9.99 µM; hit rate 1.5% among 340,000;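 active = melting point raised past a set limit in the mean and every replicate; inconclusive = no clear call; three in four hits are not shown here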
# Target sequence (Q9HCT0 whole entry, looked up): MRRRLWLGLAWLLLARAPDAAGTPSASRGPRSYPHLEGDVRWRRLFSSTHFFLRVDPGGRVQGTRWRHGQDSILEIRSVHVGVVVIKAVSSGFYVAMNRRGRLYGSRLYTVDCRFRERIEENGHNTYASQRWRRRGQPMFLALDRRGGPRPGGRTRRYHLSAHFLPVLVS
# The depositor's hits bear a star; i = inactive; ? = inconclusive; · = not tested or not shown; & = joins results of further samples. These rows are one share of the data (hit frequency here may not be typical).
Compound	RanGTP-Impb inh	UCH37 DUB inh	MLL AF4-AF9 inh	E coli growth	Vif TR-FRET	FGF22 binding	HNF4A DNA FP
CC(C)(CNC(=O)c1cc(=O)[nH]c2ccccc12)N1CCOCC1	0.8	-12.6	·	0.788	-0.4%	·	2.7
COCCNC(=O)c1ccc(C(=O)NCCOC)s1	-5.7	1.3	·	0.675	9.2%	·	-1.2
Cc1c2cnn(CC(=O)NCCN3CCOCC3)c(=O)c2c(C)n1Cc1ccccc1	-6.2	5.2	-11.7	0.679	·	i	3.8
CCc1noc(C)c1C(=O)OCC(=O)NC(=O)c1ccccc1	6.2	-2.3	-0.9	0.719	14.3%	i	3.1
CC1(C)CCN2CCC(C)(C)c3c(O)ccc1c32	-25.5	·	25.7*	·	·	i	-19.0
COc1ccc(-c2cnn3c(N)c(S(=O)(=O)c4ccccc4)cnc23)cc1	-1.7	-0.5	·	0.725	-8.5%	·	-1.8
O=C(CCc1ccncc1)N1CCCC(Nc2ccc(F)c(F)c2)C1 (stereo not drawn)	-2.1	2.4	-2.0	0.7	1.8%	i	-3.1
O=[N+]([O-])c1ccc(OCC(O)CNC2CCCC2)cc1 (stereo not drawn)	-3.7	7.4	5.6	0.701	-4.0%	i	3.9
Cc1cccc(N(C(=O)CCC(=O)Nc2nccs2)C(C(=O)NC(C)(C)C)c2ccc(O)cc2)c1 (stereo not drawn)	?	1.6	1.3	0.696	7.7%	i	1.9
c1n[nH]c(SCCCCSc2ncn[nH]2)n1	1.9	-3.6	·	0.719	-6.2%	·	2.5
CN(Cc1nc(-c2ccncc2)no1)S(=O)(=O)c1ccccc1	8.1	0.3	·	0.745	0.1%	·	-2.0
CC(C(=O)N1CCOCC1)N1C(=O)c2cccc3cccc(c23)C1=O (stereo not drawn)	?	-7.4	1.5	0.725	11.2%	i	1.3
CCn1cc(/C=C(\NC(=O)c2ccccc2OC)C(=O)NCCCN2CCOCC2)c2ccccc21	0.3	9.2	2.7	0.716	·	i	-2.3
Cc1ccc(C)c(SCC(=O)N(C)CC(=O)Nc2ccc(N3CCOCC3)cc2)c1	0.5	3.9	0.6	0.698	11.0%	i	1.6
CCN(CC)c1nc(SCC(=O)O)nc(N(CC)CC)n1	1.7	5.5	·	0.729	-3.6%	·	2.8
CCCCN(C(=O)CSc1nncn1-c1ccccc1)c1c(N)n(Cc2ccccc2)c(=O)[nH]c1=O	0.9	2.0	-0.2	0.71	·	i	-2.4
CN(C/C=C/c1ccccc1)Cc1cccc2ccccc12	·	-0.6	-16.3	·	·	i	-0.9
Cc1cccc(NC(=O)C2CCCN(S(=O)(=O)c3cccc4nonc34)C2)c1 (stereo not drawn)	-4.5	-13.7	-0.2	0.673	-16.2%	i	7.1
CCOC(=O)C1CCCN(C(=O)c2cn(C)c3ccc(S(=O)(=O)N(C)C)cc3c2=O)C1 (stereo not drawn)	·	7.9	0.2	0.731	4.1%	·	-1.8
O=[N+]([O-])c1ccc(-c2cn(-c3ccc(Cl)cc3)c(=S)[nH]2)cc1	-65.5	1.9	·	0.724	27.8%	·	-3.8
CCC1=NN(C(=O)Cc2ccc([N+](=O)[O-])cc2)C(O)(c2ccncc2)C1 (stereo not drawn)	17.6*	2.8	0.5	0.681	7.5%	i	0.3
CC1(c2ccc(Cl)cc2Cl)OCC(Cn2ccnc2)O1 (stereo not drawn)	2.2	0.4	·	0.681	12.9%	·	-0.3
CSc1nc(N)nc2c1ncn2CC(=O)NCCCN1CCCC1=O	·	-3.3	-3.2	0.698	-1.9%	i	-4.2
O=C(Nc1ccccc1)c1cc(S(=O)(=O)N2CCOCC2)cs1	-1.2	1.8	·	0.657	18.0%	·	0.4
Cc1ccc(CNC(=O)COC(=O)c2ccc(S(=O)(=O)N(C)C)cc2)cc1	0.6	1.9	-0.8	0.727	-6.7%	i	-1.2
COc1ccc(-c2c(-c3cc(OC)cc(OC)c3)n(C)c3ccc(-c4ccc(OC)c(F)c4)cc23)cc1	·	-63.6	1.6	0.732	·	i	1.3
Nc1ccc(S(=O)(=O)NCC2CCCCO2)cc1 (stereo not drawn)	·	-0.5	-4.3	0.69	-0.8%	·	-3.7
C=CCNC(=O)/C(=C\c1ccco1)NC(=O)c1ccco1	-4.2	6.4	1.6	0.664	·	·	-0.8
CC1(Cc2cccc(C(F)(F)F)c2)C(=O)Nc2c(Cl)ccc(Cl)c21 (stereo not drawn)	·	·	0.0	·	·	i	0.4
CN1CCN(C(=O)c2cc3cc(Cl)ccc3[nH]2)CC1	0.9	4.2	-7.0	0.674	·	i	-2.2
CC(C)C(=O)Nc1sc2c(c1C(N)=O)CCN(Cc1ccccc1)C2	133.7*	0.3	2.9	0.761	·	i	1.7
O=C(c1cn(-c2ccccc2)nc1-c1ccc(Cl)s1)N1CCOCC1	-7.7	1.1	·	0.707	-9.8%	·	1.0
Cc1ccc2cccc(Oc3cnccn3)c2n1	1.5	1.9	·	0.73	7.2%	·	-1.8
O=C1C=C(c2cccc3c2sc2ccccc23)C[C@@H](c2ccc(Cl)cc2)C1	·	-0.6	2.2	·	·	i	3.2
CCOc1cc2c(cc1C=O)OC(C)C2 (stereo not drawn)	-1.2	-20.8	4.0	0.686	·	i	5.2
COc1cccc(CNC(=O)CCCC(=O)NC(C)CCc2ccccc2)c1 (stereo not drawn)	6.0	2.7	0.5	0.719	·	i	-0.7
CC1CCN(S(=O)(=O)c2cccc(C(=O)N(C)C3(C)CCS(=O)(=O)C3)c2)CC1 (stereo not drawn)	4.1	3.6	-2.1	0.714	·	i	-1.4
Nc1nc(CSc2nnnn2-c2ccc(F)c(Cl)c2)nc(N2CCOCC2)n1	4.2	0.8	·	0.717	-4.9%	·	3.7
Cc1cc(C)c2c(n1)sc1c(-c3ccccc3)c(C#N)c(N)nc12	81.9*	-12.2	·	0.732	-15.2%	·	-1.8
CC(C)n1nnnc1-c1ccc(Cl)cc1	3.3	0.9	-12.0	0.664	-3.4%	i	0.8
COc1cc(S(=O)(=O)N2CCOCC2)ccc1NC(=O)COc1ccc(N(C)S(=O)(=O)c2ccc(C)cc2)cc1	-3.0	2.9	0.3	0.744	·	i	2.7
O=C(c1cccnc1)c1cccnc1	1.2	3.6	-1.8	0.692	-7.1%	i	2.3
CC(C)(C)C(=O)/C=C/Nc1ccccc1O	2.6	6.2	·	0.751	10.5%	·	3.0
COc1cc(OC)nc(NC(=O)CCl)n1	?	1.5	·	0.651	0.0%	·	-0.1
COC(=O)c1c(NC(=O)CC2SC(N)=NC2=O)sc2c1CCCC2 (stereo not drawn)	0.6	-0.3	-10.2	0.721	28.4%	i	2.5
Cc1nc2ccccc2nc1NS(=O)(=O)c1ccc(N)cc1	-5.4	-3.6	0.1	0.662	·	i	-1.2
CCOc1ccc(Cc2nnc(SCC(=O)Nc3c(C)cccc3C)[nH]c2=O)cc1	-1.7	2.1	1.6	0.699	4.6%	i	-4.5
CC1CCN(C(=O)c2ccc(NC(=O)C3CCCO3)cc2)CC1 (stereo not drawn)	0.3	3.1	·	0.697	4.7%	·	-2.9
COc1ccccc1N1CCN(S(=O)(=O)CCNC(=O)C2CCCC2)CC1	?	0.5	0.7	0.619	11.7%	i	1.0
Nc1nc(N2CCOCC2)cc(=O)[nH]1	20.3*	-0.9	·	0.732	-8.0%	·	-0.8
COc1ccc(-n2c(=O)c3ccccc3n(CC(=O)NC3CCCC3)c2=O)c(OC)c1	3.7	1.4	·	0.709	19.1%&-4.1%	·	-0.2
COc1ccc(S(=O)(=O)N2CCCCCC2)cc1C(=O)N(C)CC(=O)Nc1c(Cl)cccc1Cl	0.5	-2.2	2.0	0.682	4.3%	·	-2.4
O=C(CSc1ccc(C(F)(F)F)cc1[N+](=O)[O-])Nc1ccccc1	2.2	6.6	·	0.672	1.7%	·	-4.0
CC[n+]1c(/C=C/N(C)c2ccccc2)oc2ccc(Cl)cc21	4.1	5.6	-2.3	·	?	i	9.2
CCOCCCNC(=O)c1ccccc1OC1CCN(S(C)(=O)=O)CC1	0.5	-2.3	-1.8	0.668	-2.8%	i	6.2
Cc1cc(NC(=O)c2ccc(Cn3cc([N+](=O)[O-])cn3)o2)no1	·	2.4	-8.1	0.681	·	i	-0.8
O=C(Nc1nc(-c2ccccc2)c(-c2ccccc2)s1)c1ccc(S(=O)(=O)N2CCCC2)cc1	-0.4	-38.9	·	0.651	2.0%	·	-3.5
O=C(CNc1cccc(S(=O)(=O)N2CCOCC2)c1)N1CCc2ccccc21	-0.1	3.6	-4.2	0.719	10.7%	i	0.3
CCOC(=O)CCC(=O)Nc1cccc([N+](=O)[O-])c1	-3.0	-1.0	·	0.701	·	·	-4.3
COc1ccc(CN(C)S(=O)(=O)c2nnc(NC(=O)c3ccccc3OC)s2)cc1OC	3.5	2.5	2.3	0.611	·	i	2.7

# Next compounds follow:
Compound	RanGTP-Impb inh	UCH37 DUB inh	MLL AF4-AF9 inh	E coli growth	Vif TR-FRET	FGF22 binding	HNF4A DNA FP
O=C1CN(C(=O)COC(=O)c2ccc([N+](=O)[O-])s2)c2ccccc2N1	·	75.6*	·	0.612	-0.1%	·	-0.1
CC(C)c1ccc(NC(=O)C2=NNC(=O)CC2)cc1	3.5	6.2	2.7	0.657	20.3%	i	-1.2
COc1ccc(CN2C[C@@H](CO)O[C@@H](n3cnc4c(N5CCN(c6ccccc6)CC5)ncnc43)C2)cc1	·	·	10.8	·	·	i	1.7
O=C(NC(=S)NNC(=O)c1ccc(Cl)cc1Cl)c1cccnc1	4.1	5.6	·	0.616	-13.9%	·	0.3
COc1ccc(C(CNC(=O)C2CC2)N(C)C)cc1 (stereo not drawn)	-0.8	-0.7	1.6	0.697	-12.6%	i	-0.8
COc1cccc(C(NC(C)=O)c2nc(-c3ccc4ccccc4c3)cs2)c1 (stereo not drawn)	·	·	3.3	·	·	i	-2.7
CCOc1ccc(C(=O)NC2C(=O)N3C(C(=O)O)=C(COC(C)=O)CSC23)cc1OCC (stereo not drawn)	·	1.4	-5.6	0.695	6.3%	i	-3.6
CCN(CC)S(=O)(=O)c1ccc(N/N=C/c2ccc(O)cc2O)nc1	0.0	·	·	·	8.1%	·	0.5
Cc1nonc1CN(C)C(=O)CC1C(=O)NCCN1Cc1ccccc1F (stereo not drawn)	1.1	-4.4	0.0	0.712	·	i	3.6
Cc1c(/C(O)=C2/C(=O)C(=O)N(CCN3CCOCC3)C2c2cccs2)cnn1-c1ccccc1 (stereo not drawn)	5.1	13.6	·	0.763	-1.2%	·	2.3
Cc1ccc(S(=O)(=O)N(C)c2ccc(C(=O)NCC(c3cccs3)N3CCOCC3)cc2)cc1 (stereo not drawn)	2.5	2.8	-3.8	0.69	·	i	-1.8
Cc1ccc(CS(=O)(=O)CCC(=O)NCc2ccc(F)cc2)cc1	1.0	2.3	0.7	0.707	·	i	1.1
Cc1ccnc2nc(C(=O)OCC(=O)N(Cc3ccccc3)C(C)C)nn12	·	1.2	-5.6	0.685	·	i	-2.0
COc1cc(C2C(C(=O)C(C)(C)C)=C(O)C(=O)N2Cc2ccccc2)ccc1O (stereo not drawn)	0.5	5.1	-23.3	0.68	-8.7%	i	-2.7
